# StopGo reporter – FMDV 2A StopGo reporter, luciferase signal | human cells with a luciferase reporter of 2A StopGo recoding; control for the full effect not named in the record | Potency, µM (top dose mostly 57.9 µM), without a hit: at the highest dose signal change, negative = less light | actives 1.2% (n = 410,000) | AID 1159524; active = well fitted falling curve with a large enough effect; inconclusive = small, poorly fitted or top-dose-only effect; inactive = no such curve, though single readings can be large or run the other way; tested in HEK293T cells; also: % is scaled to controls: 0 for no effect and ±100 for the full control effect; nearly all actives have a fitted effect of over 45% in size; luciferase light after 4 h
# MARV entry inh – inhibitors of Marburg virus binding or cell entry | Potency, µM (titrated, usually from 37.8 µM), inactives show at the top dose activity change, negative = inhibition, hits mostly inhibitors | Marburg virus pseudotyped entry inhibition, cell reporter; control for the full effect not named in the record; about a third of the inactives were read at about 46 µM | AID 540276 | actives 1.8% (n = 300,000); active = well fitted inhibition curve with a large enough effect; inconclusive = small, poorly fitted or top-dose-only effect, or effect the other way; inactive = flat fitted curve, though single readings scatter; tested in HEK293 cells; about a fifth of its hits are not listed in these tables; also: % is scaled to controls: 0 for no effect and ±100 for the full control effect; luciferase read-out
# Cruzain Triton – cruzain (T. cruzi) inhibition with detergent; P25779; purified cruzain, Z-FR-AMC fluorescence, 0.01% Triton; Potency, µM, for inactives: max response, negative = inhibition, most hits filed as inhibitors; AID 1478; actives 0.43% (n = 200,000); active = well fitted curve in the direction sought with a large enough effect; inconclusive = small, poorly fitted or top-dose-only effect, or another doubt; inactive = no such curve, though single readings can be large; an effect the other way counts as inactive or inconclusive;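 also: plate controls were neutral wells for no effect and buffer without enzyme for full effect; nearly all actives have a fitted effect of over 40% in size; top concentration of the series not given in the record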
# Target sequence (P25779 123-467 limits assumed): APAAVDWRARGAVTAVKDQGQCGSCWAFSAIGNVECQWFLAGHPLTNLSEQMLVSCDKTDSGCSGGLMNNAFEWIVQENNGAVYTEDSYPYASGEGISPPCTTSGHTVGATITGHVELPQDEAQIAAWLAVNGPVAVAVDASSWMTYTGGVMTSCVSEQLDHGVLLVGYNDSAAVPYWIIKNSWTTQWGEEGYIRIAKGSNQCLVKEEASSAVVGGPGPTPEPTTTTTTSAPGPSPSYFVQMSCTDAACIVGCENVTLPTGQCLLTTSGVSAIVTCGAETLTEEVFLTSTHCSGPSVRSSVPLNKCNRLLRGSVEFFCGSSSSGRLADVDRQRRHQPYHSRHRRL
#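 Purified cruzain (1.5 nM final) was preincubated with compounds for 15 min at room temperature in 100 mM sodium acetate pH 5.5, 5 mM DTT, 0.01% Triton X-100. Reaction started with 2 uM Z-FR-AMC; AMC fluorescence change over 60 s gave activity.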
# SARS PLpro yeast – SARS-CoV PLP inhibition in yeast; S. cerevisiae expressing SARS-CoV PLpro, growth rescue; control for the full effect not named in the record; Potency, µM (highest dose often 32.9 µM), for inactives: at the top dose activity, positive = growth rescue; actives 0.19% (n = 330,000); AID 485353; also: 0% is about no effect; nearly all actives have a fitted effect of over 55% in size; growth read by luminescence after 48 h
# RE007 growth inh – less growth of the S. pombe RE007 Vpr strain; S. pombe RE007 Vpr strain, BacTiter-Glo ATP luminescence, 24 h; control for the full effect not named in the record; Potency, µM (top dose mostly 92.2 µM), inactives show top-dose activity change, negative = less growth; actives 0.21% (n = 360,000); active = well fitted falling curve with a large enough effect; inconclusive = small, poorly fitted or top-dose-only effect; inactive = no such curve, though single readings can be large or run the other way;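 also: % is scaled to controls: 0 for no effect and ±100 for the full control effect; nearly all actives have a fitted effect of over 50% in size; the assay follows cell death caused by Vpr and the record does not say whether a fall means rescue or toxicity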
#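 Fission yeast RE007 carrying one integrated HIV-1 vpr copy, seeded at OD 0.01 in PMG+AL medium with 23 nL pinned compound. Grown 24 h at 30 degrees; viability read by BacTiter-Glo luminescence after 5 min.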
# NS1 function inh – influenza NS1 inhibition; AID 2326; S. cerevisiae slowed by influenza A NS1, growth recovery by OD600; Potency, µM (top dose mostly 46.1 µM), without a hit: at the top dose activity, positive = more growth; actives 0.4% (n = 270,000); also: actives are rising curves; nearly all actives have a fitted effect of over 50% in size
#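 Read-out: OD600 growth recovery of NS1-expressing budding yeast. Cells grown overnight at 30C in -URA glucose medium, washed, resuspended and diluted 1:100 in 2% galactose assay medium, pH 6.0. Same strain lacking NS1 served as positive control.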
# Cruzain noTriton – cruzain (T. cruzi) inhibition without detergent | P25779 | purified cruzain, Z-FR-AMC fluorescence, no detergent | Potency, µM, without a hit: max response, negative = inhibition, usual class: inhibitors | actives 2.3% (n = 200,000) | AID 1476; active = well fitted curve in the direction sought with a large enough effect; inconclusive = small, poorly fitted or top-dose-only effect, or another doubt; inactive = no such curve, though single readings can be large; an effect the other way counts as inactive or inconclusive;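 also: plate controls were enzyme without inhibitor for no effect and buffer without enzyme for full effect; nearly all actives have a fitted effect of over 40% in size; top concentration of the series not given in the record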
#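 Detergent-free condition (0.00005% Triton X-100) in acetate buffer pH 5.5 with DTT. 1.5 nM enzyme and compound were pre-mixed 15 min, then 2 uM Z-FR-AMC substrate added; reaction progress from fluorescence change between first and third reads (60 s).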
# Lassa entry inh – blocks Lassa virus binding to or entry into cells. actives 1.2% (n = 300,000). Potency, µM (doses to about 37.9 µM), for inactives: at the highest dose activity change, negative = inhibition, usual class: inhibitors. Lassa virus pseudotype entry inhibition, cell reporter; control for the full effect not named in the record. AID 540256; active means well fitted inhibition curve with a large enough effect; inconclusive means small, poorly fitted or top-dose-only effect, or effect the other way; inactive means flat fitted curve, though single readings scatter; tested in HEK293 cells; also: % is scaled to controls: 0 for no effect and ±100 for the full control effect; nearly all actives have a fitted effect of over 50% in size; luciferase read-out
# * = called active by the depositor; ? = inconclusive; . = not tested or not shown; & = joins results of further samples; [ ] = remark or other dose. Unless noted, calls follow the shape of the dose curve; as a rule, active means well fitted rising curve with a large enough effect; inconclusive means small, poorly fitted or top-dose-only effect; inactive means no such curve, though single readings can be large or run the other way. Potency is read from the fitted curve at half-maximal effect. Compounds as they come; any-hit rate near 4.7%.
SMILES,StopGo reporter,MARV entry inh,Cruzain Triton,SARS PLpro yeast,RE007 growth inh,NS1 function inh,Cruzain noTriton,Lassa entry inh
COc1ccc(NC(=S)N2CCN(C(=O)c3ccccc3)CC2)cc1,14.1%,25.4%[46.1 µM],.,0.6%,-1.2%,-2.0%,.,-14.3%
CC(=O)c1ccc(N2CCN(C(=O)COc3ccc4c(c3)CCC4)CC2)cc1,-16.9%,.,.,6.3%,0.6%,-26.8%,.,.
COc1ccc(C2=NN(C(=O)CCC(=O)O)C(c3ccc(OC)c(OC)c3)C2)cc1 (stereo not given),-11.9%,6.1%,.,-0.5%,17.8%,26.9%,.,16.6%
Cc1cccc(NC(=O)CSCc2cc(=O)n3nc(C4CC4)sc3n2)c1,-17.8%,.,.,1.1%,-8.8%,-0.1%,.,.
CCOC(=O)c1ccccc1-c1csc(N)n1,6.0%,-1.7%[46.1 µM],.,2.7%,-19.2%,-5.0%,.,27.6%
CN(C)/C(CN1CCOCC1)=C1\N=C(c2ccccc2)OC1=O,0.0%,3.3%,0.2%,5.9%,-5.0%,-14.3%,-2.2%,34.7%[14.3 µM]
Cc1ccc(CNC(=O)c2c[nH]n3c(=O)c(Cc4ccc(Cl)cc4)c(C)nc23)cc1,-9.2%,-18.6%[46.1 µM],-6.9%,.,.,.,-5.3%,10.4%[46.1 µM]
COc1ccc(NC(=O)C(=O)NCC(c2ccco2)N2CCc3ccccc3C2)cc1 (stereo not given),-11.8%,-29.5%,.,-16.8%,7.1%,.,.,?
COc1ccc(Br)cc1CNC(=O)c1cnc2sc(N3CCCC3)nn2c1=O,4.0%,.,0.1%,.,.,.,-7.0%,0.4%[46.1 µM]
Cc1ccc(C)c(NC(=O)CN(C)S(=O)(=O)c2cccc3cccnc23)c1,-27.0%&-7.5%,-7.8%&-7.8%[46.1 µM],0.6%,-3.7%,-16.7%,0.6%,2.9%,.
COc1ccc(C(=O)N(C)CC(O)c2ccccc2)cc1OC1CCN(C(C)=O)CC1 (stereo not given),0.9%,4.3%[46.1 µM],.,2.3%,13.2%,-5.8%,.,0.8%[46.1 µM]
Cc1cc(NC(=O)Cc2ccccc2C)no1,-8.3%,.,.,-2.3%,-17.8%,-6.5%,.,.
C[C@@H]1NCCc2cc(O)c(O)cc21,-23.5%,.,0.9%,.,7.7%,.,-8.3%,.
OCCC1CN(Cc2cnc(N3CCCC3)s2)CCN1Cc1ccccc1 (stereo not given),0.0%,-2.5%[46.1 µM],.,4.1%,-5.7%,-1.1%,.,3.9%[46.1 µM]
O=C(NCC(O)c1ccccc1)Nc1cccs1 (stereo not given),41.4%[activator],.,.,-0.9%,-9.4%,-0.4%,.,.
COc1cc2c(cc1OC)CN(C(=O)c1cc(S(=O)(=O)N3CCOCC3)ccc1Cl)CC2,-19.1%,10.7%,-3.3%,?,-0.9%,-20.4%,?,5.5%
CCc1nnc(NS(=O)(=O)c2ccc(N/C=C\C(=O)c3ccc(C)cc3)cc2)s1,16.1%,11.4%,-6.9%,-1.3%,3.2%,-52.2%,?,-11.0%
COc1ccc(S(=O)(=O)N(CC(N)=O)C2CCCCC2)cc1Cl,0.0%,-0.2%,3.8%,-3.7%,2.8%,-1.9%,12.9%,-13.6%
Clc1ccc(-c2nc3n(n2)Cc2ccccc2-3)cc1,7.2%,?,-1.8%,-5.6%,-13.0%,-1.6%,-23.7%,?
CCc1cc2c(=O)oc(-c3ccc(F)cc3)nc2s1,28.8%,.,.,-2.1%,-1.0%,6.2%,.,.
Cc1cc(-c2nnc(SCC(=O)Nc3ccccc3F)n2N)n[nH]1,7.0%,19.5%[46.1 µM],.,-1.1%,-5.9%,-0.1%,.,13.7%[46.1 µM]
Cn1c(=O)[nH]c(=O)c2c1nc(CN1CCOCC1)n2Cc1ccc(F)cc1,-28.0%,-2.1%,-2.2%,-2.1%,8.9%,-1.2%,6.8%,.
Cc1ccc(-n2c(O)c(/C=N/N3CCCCC3c3cccnc3)c(=O)[nH]c2=S)cc1 (stereo not given),12.1%,7.0%,-18.8%,-0.8%,15.2%,-6.8%,-2.5%,2.2%
CN(C(=O)Cn1c(=O)oc2ccccc21)C1CCCCC1,-7.3%,31.4%,.,0.5%,14.9%,.,.,-0.6%
Cc1ccc(-n2nnnc2SCC(=O)Nc2ccc(N3CCN(C)CC3)cc2)c(C)c1,-21.1%,.,.,-0.2%,-26.2%,7.5%,.,.
CN(C)CCNC(=O)Nc1ccc([N+](=O)[O-])cc1,-5.4%,.,.,1.5%,-0.8%,4.5%,.,.
CC(=O)c1c(N2CCCCC2)nc(=S)n(Cc2ccccc2)c1C,4.9%,-6.3%,1.6%,-1.1%,-3.8%,-5.7%,-1.6%,?
COc1ccc(S(=O)(=O)N2CCCC2)cc1C(=O)N1CCOCC1,-14.9%,?,.,3.6%,1.9%,.,.,-2.2%[46.1 µM]
Cc1cc(NC(=O)CSCC(=O)OC(C)C(=O)N(C)Cc2ccccc2)no1 (stereo not given),-16.6%,15.2%[46.1 µM],.,1.4%,7.0%,.,.,-6.7%
CN(C(=O)COc1cc(=O)n(C)c2ccccc12)c1ccc(Cl)cc1,-20.4%,.,0.2%,5.8%,-0.4%,-13.9%,-9.3%,.
O=C(CCc1nnc(Cc2ccc3c(c2)OCO3)o1)N(CC1CCC1)CC1CCCO1 (stereo not given),16.4%,.,.,-2.7%,12.6%,0.1%,.,.
Cc1ccc(-c2nnc(N(C)C(=O)c3ccncc3)s2)cn1,25.9%,5.2%[46.1 µM],0.5%,2.0%,2.8%,-9.9%,-0.9%,12.6%
Cc1ccc2c(c1)N(CC(=O)NCCCN1CCCCC1C)C(=O)c1cccnc1O2 (stereo not given),25.4%&6.3%,-3.2%&-3.2%[46.1 µM],.,4.7%,0.7%,-10.6%,.,17.2%&-6.4%[46.1 µM]
O=C(CCCN1C(=O)/C(=C/c2ccco2)SC1=S)Nc1cccc(C(=O)O)c1,2.5%,6.1%[46.1 µM],.,-0.9%,2.4%,4.2%,.,28.2%
O=C(CN1C(=O)S/C(=C/c2cccs2)C1=O)N1CCOCC1,24.6%,2.2%,-0.3%,2.7%,-8.8%,0.7%,-12.2%,?
COc1cc(Cl)c(C)cc1NC(=S)NN,-13.5%,?,.,1.0%,-11.3%,0.0%,.,-7.0%
[O-][N+](=C(c1ccccc1)c1ccccc1)c1ccccc1,-4.4%,7.2%[46.1 µM],.,.,-10.4%,.,.,-3.4%[46.1 µM]
FC(F)(F)c1cccc(/C=N/NC(=S)NC2CCCCC2)c1,6.1%,?,.,-0.8%,-11.7%,.,.,?
CCOc1cc(C(c2c(C)[nH][nH]c2=O)c2c(C)[nH][nH]c2=O)ccc1OC(=O)c1cccc([N+](=O)[O-])c1,-12.4%,0.7%,-3.2%,-0.3%,5.7%,29.1%,5.9%,-9.2%
Cc1ccnc(N2CCCC(C(=O)Nc3nnc(C)s3)C2)n1 (stereo not given),-15.1%,-4.2%,2.4%,3.1%,1.5%,-6.6%,-9.0%,5.1%
CCOC(=O)c1c(-n2c(C)cc(C=C3C(=O)NC(=O)NC3=O)c2C)sc2c1CCCC2,-0.4%,?,1.3%,-12.8%,11.1%,-1.8%,-23.8%,?
Cc1cc(C(=O)CSc2nc3ccccc3n2CCC#N)c(C)n1Cc1cccs1,-9.8%,?,2.2%,-1.2%,0.2%,14.2%,15.8µM*,49.4%
COc1cccc(-c2nc(CS(=O)(=O)CC(=O)NCCc3cc(OC)ccc3OC)c(C)o2)c1,?,?,.,3.8%,11.8%,-8.3%,.,?
O=C(Nc1cccc(F)c1)C1CCCN(S(=O)(=O)c2cccc3cccnc23)C1 (stereo not given),?,-7.0%&-7.0%[46.1 µM],-6.0%,-1.0%,-2.2%,1.9%,-5.7%,-25.2%[46.1 µM]
O=C1C2=C(Nc3ccccc3SC2c2c(F)cccc2Cl)c2ccccc21 (stereo not given),-2.8%,-5.5%[46.1 µM],-4.5%,.,.,.,-14.0%,1.7%[46.1 µM]
CC(C)OP(=O)(c1ccc(N(C)C)cc1)C(O)c1ccc(N(C)C)cc1 (stereo not given),-10.2%,.,.,0.1%,1.7%,-3.4%,.,.
CCn1c(=O)cc(OCC(=O)N(C)C2CCCCC2)c2ccccc21,-15.1%,12.3%,3.5%,-3.0%,3.3%[3.69 µM],-2.3%,-7.0%,8.2%
CC(=O)c1c(N2CCCCC2)nc(=S)n(-c2ccccc2)c1C,-11.2%,-19.8%,-0.6%,-9.5%,-4.2%,-6.0%,-7.8%,7.8%
O=C(CC12CC3CC(C1)CC(CC(=O)N1CCCC1)(C3)C2)N1CCCC1,-9.4%,6.3%,0.5%,-0.4%,4.0%,-13.8%,-3.3%,-0.3%
CCc1ccccc1NC(=O)C1COc2ccccc2O1 (stereo not given),-5.3%,-17.8%,.,3.0%,11.9%,0.7%,.,18.0%
O=C(C[n+]1ccccc1)N/N=C/c1ccccc1C(F)(F)F,-7.4%,.,.,1.2%,1.9%,2.8%,.,.
Cc1nc(SCC(=O)Nc2ccccc2Cl)cc(-c2ccccc2)n1,-17.3%,?,-1.3%,.,.,.,-1.4%,-5.6%[46.1 µM]
CCC(=O)c1cc(F)c(N2CCN(S(=O)(=O)c3ccc(C)cc3)CC2)cc1C,?,?,-2.2%,-6.5%,8.1%,-12.9%,-11.0%,-23.6%
CCCCNC(=S)NNC(=O)c1sccc1C,54.4%[activator],-2.6%,5.9%,4.5%,0.4%,-2.9%,6.1%,4.1%
CN(C(=O)c1ccc2c(c1)N(Cc1cccc(Cl)c1)C(=O)c1ccccc1S2=O)C1CCCCC1 (stereo not given),-10.8%,.,-6.1%,.,.,.,-3.6%,?
COC(=O)c1ccc(C)c(NC(=O)CCc2ccc(OC)cc2)c1,1.4%,.,-2.0%,1.1%,-4.0%,-0.8%,11.2%,.
CCN(CC)c1ncnc2c1nnn2C,-11.4%,2.2%[46.1 µM],.,.,1.8%,.,.,0.7%[46.1 µM]

# Screening results from PubChem.
